Compound activity: PubChem, National Center for Advancing Translational Sciences (NCATS)
A488 fluor: compound fluoresces in the A488 spectral region; compound autofluorescence, A488 spectral region, dye equivalency; hits give high values; max dye equivalency, M; 59,000 tested, 0.1% active; AID 591; active = above 10 nM dye equivalent; inconclusive = 1 to 10 nM; inactive = 1 nM or less; about half of its hits are not listed in these tables;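 note: highest value over a series up to 38 µM; compound alone in buffer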
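Spectroscopic profiling in the A488 region: compounds in pH 8.0 Tris (100 mM), 15 min RT, CCD imaging with 480 nm excitation and 540 nm emission; responses normalized against A488 dye standards.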
TSHR agonist: agonists of human thyroid stimulating hormone receptor; P16473; HEK293-CNG-TSHR cells (CNG channel as cAMP sensor), membrane potential dye, cAMP; Potency, µM (top dose mostly 57.1 µM), inactives show top-dose activation, hits mostly activators; 73,000 tested, 0.48% active; AID 926; active = well fitted activation curve of enough size with the parental cells flat; inconclusive = any curve in the parental cells; inactive = parental cells flat and receptor cells flat or falling; note: potency is the fitted concentration of half-maximal effect; % of control where 0% means no effect; weak receptor curves with flat parental cells got no call and are not listed
Target sequence (P16473 whole entry, looked up): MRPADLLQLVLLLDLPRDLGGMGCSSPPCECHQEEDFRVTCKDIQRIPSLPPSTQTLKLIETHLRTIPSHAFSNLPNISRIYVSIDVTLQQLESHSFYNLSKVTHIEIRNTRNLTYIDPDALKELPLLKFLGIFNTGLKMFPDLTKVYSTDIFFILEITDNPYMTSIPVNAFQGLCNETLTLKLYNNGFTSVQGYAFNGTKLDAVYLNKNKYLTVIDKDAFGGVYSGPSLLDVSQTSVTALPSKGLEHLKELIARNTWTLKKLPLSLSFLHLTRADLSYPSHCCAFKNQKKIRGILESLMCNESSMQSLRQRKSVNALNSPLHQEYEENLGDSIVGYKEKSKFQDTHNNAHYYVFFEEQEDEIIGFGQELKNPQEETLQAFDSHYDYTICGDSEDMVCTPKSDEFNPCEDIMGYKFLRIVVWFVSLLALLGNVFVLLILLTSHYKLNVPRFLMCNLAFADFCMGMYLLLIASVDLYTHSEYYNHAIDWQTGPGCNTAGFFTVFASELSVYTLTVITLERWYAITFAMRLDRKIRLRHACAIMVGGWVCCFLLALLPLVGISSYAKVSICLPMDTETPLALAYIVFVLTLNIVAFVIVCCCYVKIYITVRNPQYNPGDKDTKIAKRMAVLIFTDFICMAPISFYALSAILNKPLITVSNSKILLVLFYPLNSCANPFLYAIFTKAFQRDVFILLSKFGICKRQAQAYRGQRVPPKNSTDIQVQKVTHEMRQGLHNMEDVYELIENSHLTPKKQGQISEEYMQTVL
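HEK 293 cells stably expressing TSHR and a cAMP-gated CNG channel; parental CNG-only cells as counterscreen. Cells preloaded 60 min with membrane potential dye plus 100 uM RO 20-1724, then compound 30 min; fluorescence read at 590 nm.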
Resorufin fluor: resorufin region autofluorescence. Compound fluorescence, resorufin region 547/598 nm, buffer; hits give high values. max dye-equivalent concentration, M. 59,000 tested, 0.04% active. AID 588; active = above 10 nM dye equivalent; inconclusive = 1 to 10 nM; inactive = 1 nM or less; a few of its hits are not listed in these tables; note: highest value over a series up to 38 µM
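Compounds in 100 mM Tris, pH 8.0, incubated 15 min at room temperature, then fluorescence read at 547 nm excitation/598 nm emission. Signal converted to dye-equivalent concentration via an on-plate six-point resorufin standard curve, per compound concentration.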
A647 fluor: A647 region autofluorescence. Compound fluorescence, A647 channel (570/671 nm), Tris buffer. max dye-equivalent concentration, M. 59,000 tested, under 10 active. AID 592; active means above 1 µM dye equivalent; inconclusive means 0.1 to 1 µM; inactive means 0.1 µM or less;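 note: values scaled relative to a standard on each plate; highest value over a series up to 38 µM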
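Fluorescence read (570 nm ex, 671 nm em) after 15 min RT incubation of compounds in 100 mM Tris buffer, pH 8.0; values expressed as dye-equivalent concentration against a six-point A647 standard series on each plate.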
AID923: qHTS Assay for Allosteric/Competitive Inhibitors of Caspase-1: Spectroscopic Profiling in AFC Spectral Region | compound fluorescence, AFC spectral region (405/520 nm); almost no hit is shown here | Potency, µM (highest dose often 57.5 µM), for the others: at the top dose fluorescence increase, usual class: activators | 75,000 tested, 1.1% active; active = well fitted activation curve with a large enough effect; inconclusive = small, poorly fitted or top-dose-only effect;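 note: potency is the fitted concentration of half-maximal effect; 0% is about no effect; scaled to a free AFC standard on each plate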
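Compound autofluorescence profiled at 405 nm ex/520 nm em during kinetic caspase 1 run (50 nM enzyme, 5 uM Ac-WEHD-AFC, HEPES pH 7.5, 10 mM DTT). Titration up to 57 uM; baseline from regression intercept, normalized to AFC standard curve.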
* marks the source's active call; other numbers are inactive results; i = inactive; ? = inconclusive; / = no result given; [ ] = dose if it differs, or a comment.

molecule | A488 fluor | TSHR agonist | Resorufin fluor | A647 fluor | AID923
Cn1c(Cn2c(=O)sc3ccccc32)nnc1SCC(=O)NCc1ccco1 | / | ? | / | / | 2.3%
C/C(CCC(=O)OC[C@@H]1O[C@H](C#Cc2ccccc2)C=C[C@@H]1Oc1ccc(C)cc1)=N/OC[C@@H](C)[C@H](OCc1ccccc1)C(C)C | / | -9.6%[11.4 µM] | / | / | -0.7%[11.5 µM]
O=C(Oc1c(CN2CCOCC2)cc(Cl)c2cccnc12)c1ccc(F)cc1 | i | / | i | 1e-09 | 1.2%
COc1cc(C(=O)N2CCN(c3cc(Cl)ccc3Cl)CC2)cc(OC)c1OC | / | 2.2% | / | / | -0.2%
CCN(CC)S(=O)(=O)c1ccc(Br)c(OC)c1 | i | 5.8% | i | 2.57e-08 | -2.0%
COc1cc(C2C(C(C)=O)=C(C)Nc3ncnn32)ccc1O (configuration not stated) | i | 1.9% | i | 1.1e-09 | -0.3%
Cc1c(C(=O)NCCCN2CCOCC2)sc2nc(-c3ccc(F)cc3)cn12 | i | 9.1% | i | 9.6e-09 | 1.0%
COc1ccc(NC(=O)CSc2nnc(CNc3ccc(F)cc3)o2)c(OC)c1 | i | -1.1% | i | 5.95e-08 | 1.7%
CC1=Nn2c(nnc2-c2cc(-c3ccccc3)n[nH]2)SC1 | i | 0.8% | i | 2.8e-09 | -0.4%
CN(C)c1ccc(-c2nc(NCCc3cnc[nH]3)c3ccccc3n2)cc1 | i | ? | i | 6.5e-09 | 2.2%
Cc1ccc(SCc2nc(-c3ccccn3)no2)cc1 | i | 13.1% | i | 1e-09 | 2.1%
Cc1ccc(C2/C(=C(/O)c3ccc(OC(C)C)cc3)C(=O)C(=O)N2CCN2CCOCC2)cc1 (configuration not stated) | i | / | i | 1e-09 | /
CC(O)c1c(OCc2ccccc2)ncnc1OCc1ccccc1 (configuration not stated) | / | ? | / | / | 0.0%
Cn1c(=O)c2c(nc(NCCCN3CCOCC3)n2Cc2ccc(Cl)c(Cl)c2)n(C)c1=O | i | 1.6% | i | 3.12e-08 | 3.4%
Cc1cc(NS(=O)(=O)c2ccc(NC(=O)c3ccoc3C)cc2)nc(C)n1 | i | -8.9% | i | 6.2e-09 | -1.0%
O=C(CCC(=O)OCCCC(F)(F)C(F)(F)F)Nc1ccccc1 | / | -4.0% | / | / | 1.6%
CCC(C)[C@H](NC(=O)NCc1ccccc1Cl)C(=O)O (some centres not stated) | i | 7.9% | i | 1.4e-09 | -1.3%
CCOC(=O)C1CCN(CCC(=O)Nc2cccc(Cl)c2C)CC1 | i | -9.4% | i | 6e-08 | -1.0%
Cc1nn(-c2ccccc2)c2nc(N)c(C#N)c(-c3ccc(F)cc3)c12 | i | ? | i | 2.5e-09 | 4.0%
Clc1ccc2nc(CSc3nc4ccccc4o3)cn2c1 | i | / | i | 7.12e-08 | /
O=C(NCc1cccs1)C(Cc1ccccc1)n1cccc1 (configuration not stated) | / | 17.9% | / | / | -0.3%
Oc1ccc(Cl)cc1Cc1cc(Cl)ccc1O | / | -14.2% | / | / | -13.5%
O=C(NCCCN1CCC(Cc2ccccc2)CC1)C1CCC(=O)N1C1CCCC1 (configuration not stated) | / | 23.5% | / | / | 4.2%
Cn1c(C(=O)O)cc2cc(F)ccc21 | i | 17.4% | i | 4.6e-09 | -1.8%
OC(C#CCN1CCCC1)c1ccccc1 (configuration not stated) | / | 5.0% | / | / | -0.2%
CC(=O)c1ccc(N2CCN(C(=O)c3ccc(Br)cc3)CC2)c(F)c1 | / | 13.2% | / | / | -1.3%
O=c1c2c([nH]c3ccccc13)C(=C1CCCC1)CC2 | / | -7.9% | / | / | 3.9%
Cc1ccc(C#N)c(SCc2cc3c(cc2Cl)OCO3)n1 | i | / | i | 2.6e-09 | /
O=C(CN1C(=O)C2CC=C(Cl)CC2C1=O)Nc1ccc(C(=O)O)cc1 (configuration not stated) | i | -1.6% | i | 1e-09 | 2.6%
O=C(CC12CC3CC(CC(C3)C1)C2)N1CCCOC1 | i | ? | i | 2.49e-08 | 0.4%
Nc1ccccc1S(N)(=O)=O | i | -7.0%[25.6 µM] | i | 2.3e-09 | 5.5%[25.7 µM]
O=c1[nH]c(Cc2ccccc2)nc2c1oc1ccccc12 | i | 2.1% | i | 1.2e-08 | -1.6%
COc1ccccc1Cn1c(=O)c2ccccc2n2c(Sc3ncnc4sccc34)nnc12 | i | 0.0% | i | 1.51e-08 | 0.4%
O=C(CS(=O)(=O)Cc1ccccc1)N1CCN(c2cccc(C(F)(F)F)c2)CC1 | i | 7.5% | i | 1e-09 | -0.5%
CNc1nc(C)c(C(=O)OCc2ccccc2)s1 | i | / | i | 3.1e-09 | -0.9%
O=C(O)CCN1C(=O)c2ccc(NC(=O)c3cccs3)cc2C1=O | i | 0.0% | i | 2.77e-08 | 2.9%
CS(=O)(=O)N(CC(=O)NCCC1=CCCCC1)c1ccc2c(c1)OCO2 | i | ? | i | 1.01e-08 | -0.2%
COc1c(F)c(F)c(C(=O)Nc2ccccc2N2CCN(C(C)=O)CC2)c(F)c1F | i | 17.2% | i | 5.4e-09 | 1.6%
Oc1ccc2ccccc2c1/C=C\c1ccc2c(Br)cc(Br)c(O)c2n1 | i | -5.0%[11.4 µM] | i | 1.6e-08 | 0.0%[11.5 µM]
COc1ccc(Cl)cc1N1C(=O)C2CCCN2C1c1ccccc1F (configuration not stated) | / | 22.4% | / | / | 3.0%
Cc1ccc(OCc2occc2C(=O)O)cc1 | / | 20.2% | / | / | 0.2%
O=C(CSc1ncn(-c2ccccc2)n1)NCc1ccccc1 | i | 10.5% | i | 1e-09 | 0.7%
C=CCNc1ncnc2c1[nH]c1ccccc12 | i | 27.3% | i | 2.6e-08 | 0.9%
CCOc1ccc(C2SCC(=O)N2c2c(C)n(C)n(-c3ccccc3)c2=O)cc1 (configuration not stated) | / | 0.0% | / | / | 1.3%
CC(C(=O)N1CCN(c2ccccc2)CC1)N1C(=O)C2CC=CCC2C1=O (configuration not stated) | i | -5.5% | i | 5e-09 | 2.2%
CC(=O)c1c(C(C)=O)c(C)n(Cc2ccc3c(c2)OCO3)c1C | i | ? | i | 1e-09 | 1.1%
COc1ccccc1NC(=O)N1CCN(c2ccc3nncn3n2)CC1 | / | 1.6% | / | / | -3.6%
COc1ccc2cc(CCNC(=O)C(C)(C)C)c(=O)[nH]c2c1 | / | ? | / | / | -5.9%
CCN1C(=O)NC2C1N(S(C)(=O)=O)CCN2S(C)(=O)=O (configuration not stated) | / | 3.8%[11.4 µM] | / | / | 0.0%
Cc1ccc(Cl)cc1N1CCN(C(c2ccc(C#N)cc2)c2nnnn2C2CCCC2)CC1 (configuration not stated) | i | ? | i | 3.5e-09 | 1.3%
Cc1cc(C(=O)O)ccc1-n1c(C)ccc1C | i | 1.7% | i | 1e-09 | 1.9%
COc1cc2c(C(=O)NCc3ccc4c(c3)OCO4)cn(C)c(=O)c2cc1OC | i | 0.9%[11.4 µM] | i | 1.2e-09 | -0.3%
O=C(OCC(=O)N(C1CCCCC1)C1CCCCC1)c1cnccn1 | i | ? | i | 7.8e-09 | -1.0%
COc1ccccc1NC(=O)CSc1ncnc2c1oc1ccccc12 | i | ? | i | 1.08e-08 | 1.4%
CCOc1ccc(-c2[nH]nc3c2C(c2cccnc2)C(C#N)=C(N)O3)cc1 (configuration not stated) | i | ? | i | 3.8e-09 | -0.3%
O=C(COC(=O)c1cc(S(=O)(=O)N2CCOCC2)ccc1O)NCC1CCCO1 (configuration not stated) | i | 7.8% | i | 7e-09 | -3.2%

Of the compounds above, these contain a cyano group.
molecule | A488 fluor | TSHR agonist | Resorufin fluor | A647 fluor | AID923
Cc1nn(-c2ccccc2)c2nc(N)c(C#N)c(-c3ccc(F)cc3)c12 | i | ? | i | 2.5e-09 | 4.0%
Cc1ccc(C#N)c(SCc2cc3c(cc2Cl)OCO3)n1 | i | / | i | 2.6e-09 | /
Cc1ccc(Cl)cc1N1CCN(C(c2ccc(C#N)cc2)c2nnnn2C2CCCC2)CC1 (configuration not stated) | i | ? | i | 3.5e-09 | 1.3%
CCOc1ccc(-c2[nH]nc3c2C(c2cccnc2)C(C#N)=C(N)O3)cc1 (configuration not stated) | i | ? | i | 3.8e-09 | -0.3%

More results
molecule | A488 fluor | TSHR agonist | Resorufin fluor | A647 fluor | AID923
N#Cc1nc(Cc2cccc3ccccc23)oc1NCCCn1ccnc1 | i | 0.8% | i | 1e-09 | 4.1%
COc1ccccc1-n1nnnc1SCc1cc2c(cc1Br)OCO2 | i | ? | i | 1e-09 | -0.2%
Cc1ccccc1CNc1ncnc2c1ncn2[C@@H]1O[C@@H](CO)[C@H](O)[C@@H]1O | i | ? | i | 1.2e-09 | 0.6%
CCC(=O)OCN1C(=O)C=CC1=O | i | 2.8%[11.4 µM] | i | 1e-09 | -4.8%[11.5 µM]
CCOC(=O)N1CCC(NC(=O)c2cc(C(=O)NCc3ccc(F)cc3)ccc2CO)CC1 | i | 7.3% | i | 3.7e-09 | -0.1%
Cc1ccc2c(c1)C1OCCC1C1N2C(=O)C2C(C(=O)O)C3C=CC21O3 (configuration not stated) | i | -1.5% | i | 4.5e-09 | 5.0%
COC(=O)C1CCN(C(=O)N2CCOCC2)CC1 | i | 3.4% | i | 1e-09 | 2.7%
O=C(CSc1nnnn1C1CCCC1)Nc1ccc2c(c1)OCCO2 | i | 17.1% | i | 3.13e-08 | 0.6%
COC(=O)C1(CC(C)C)C=C2C(=C(c3ccccc3)C(=O)C2C)CN1 (configuration not stated) | / | 0.9% | / | / | 5.6%
Cc1ccc(C)c(CSc2nnc(-c3cccnc3)o2)c1 | i | / | i | 1.51e-08 | -0.2%
CCOC(=O)C1CCN(c2c(N(C)Cc3ccco3)c(=O)c2=O)CC1 | / | 12.0% | / | / | -2.2%
O=C(COC(=O)CNC(=O)C1CCCCC1)Nc1ccc(Cl)cn1 | i | 2.0% | i | 3.58e-08 | -0.8%
Cc1cccc(C)c1NC(=O)C1(N(Cc2ccco2)C(=O)c2ccccn2)CCCC1 | i | ? | i | 4.07e-08 | 0.0%
CCOC(=O)N1CCC(NC(=O)CCS(=O)(=O)c2ccc3c(c2)CCN3C(C)=O)CC1 | i | -1.2% | i | 2.6e-09 | 0.2%
Cn1c(=O)[nH]c(=O)c2c1nc(NCCCn1ccnc1)n2CCOc1ccccc1 | i | 4.6% | i | 3.92e-08 | 0.9%
CC1=CC(C)(C)N2C(=O)C3(SCC(=O)N3c3ccc(O)cc3)c3cc(C)cc1c32 (configuration not stated) | i | ? | i | 5.2e-09 | -0.8%
Cc1nn(CC(O)Cn2cnc3c2c(=O)n(C)c(=O)n3C)c(C)c1Br (configuration not stated) | i | 4.8% | i | 2.27e-08 | -0.2%
CCN(CC(=O)Nc1c(C(=O)OC)[nH]c2ccc(C)cc12)c1ccc2c(c1)OCO2 | i | -27.3% | i | 1.4e-09 | -2.1%
COc1ccc(C)cc1NC(=O)c1cc2ccccc2o1 | i | ? | i | 4.25e-08 | -0.6%
COc1cc(OC)cc(C(=O)Nc2ncc3c(n2)CC(C)CC3=O)c1 (configuration not stated) | i | 4.5%[11.4 µM] | i | 1e-09 | -0.2%
c1csc(-c2nn3c(Cn4cnc5ccccc54)nnc3s2)c1 | i | 10.5% | i | 4.4e-09 | -1.1%

This is a subset (hit frequency here may not be typical).
